KAT2A inh: qHTS Assay for Inhibitors of GCN5L2; Histone acetyltransferase KAT2A (Homo sapiens), Q92830; 390,000 tested, 0.21% active; GCN5L2 HAT assay, ThioGlo1 CoA-SH fluorescence; Potency, µM (highest dose often 58.9 µM), for the others: top-dose activity change, negative = inhibition, actives largely listed as inhibitors
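Fluorescence readout, Ex340nm/Em540nm: ThioGlo1 (50uM final) reacts with free CoA thiol released as 20nM GCN5L2 acetylates H3(1-25) peptide (75uM) using acetyl-CoA (70uM). Compound and enzyme sat 15 min beforehand; 20 min room-temperature reaction.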
FEN1 inhibitor: qHTS Assay for the Inhibitors of Human Flap endonuclease 1 (FEN1). AID 588795, 2011. Recombinant FEN1 flap cleavage, fluorescence, 15 min. 390,000 tested, 0.35% active. P39748. Potency, µM (series often up to 114 µM), for inactives: at the top dose activity change, negative = inhibition, usual class: inhibitors; note: nearly all actives have a fitted effect of over 65% in size
Target sequence (P39748 whole entry, looked up): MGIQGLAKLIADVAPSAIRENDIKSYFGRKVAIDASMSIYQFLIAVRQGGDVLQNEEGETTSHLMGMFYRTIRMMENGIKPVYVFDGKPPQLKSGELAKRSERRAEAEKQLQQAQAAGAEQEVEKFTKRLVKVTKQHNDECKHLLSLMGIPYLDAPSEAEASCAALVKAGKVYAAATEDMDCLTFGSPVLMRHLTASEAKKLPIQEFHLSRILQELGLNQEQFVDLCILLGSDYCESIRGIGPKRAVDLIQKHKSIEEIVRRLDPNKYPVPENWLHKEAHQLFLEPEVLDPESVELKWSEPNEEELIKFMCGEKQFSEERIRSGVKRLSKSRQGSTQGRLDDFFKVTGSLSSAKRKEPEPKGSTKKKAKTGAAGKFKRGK
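Nuclease activity of 10 nM FEN1 was measured after 15 min of room-temperature exposure to titrated compounds, by adding 50 nM flap substrate and reading plates at 0 and 15 min.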
* hit, by the source's call; ? = inconclusive; . = no result given; [ ] = another dose, or the depositor's remark. Calls come from the whole dose curve; as a rule, active = well fitted curve in the direction sought with a large enough effect; inconclusive = small, poorly fitted or top-dose-only effect, or another doubt; inactive = no such curve, though single readings can be large; an effect the other way counts as inactive or inconclusive. % is set by controls: 0 for no effect and ±100 for the full control effect; potency is the fitted concentration of half-maximal effect. A portion of the library, and most or all hits are left out here.

# | smiles | KAT2A inh | FEN1 inhibitor
1 | CCCNCc1cc(OC)c(OCC(=O)NCCc2ccccc2)cc1Br | 0% | 0%
2 | CCCCNC(=O)C1CC(=O)N(c2ccc(OC)cc2)C1c1ccc(OC)cc1 (configuration not stated) | -8% | -9%
3 | Cn1c(CO)cnc1SCc1ccccc1 | -7% | 4%
4 | COc1ccccc1CNC(=O)COC(=O)c1ccncc1 | 2% | 0%
5 | O=C(c1ccc(Cl)s1)N1CCCC1 | -2% | -2%
6 | CCOC(=O)N1CCN(c2c(NCc3cccs3)c(=O)c2=O)CC1 | -5% | 20%
7 | CC(=O)NC1C(OCc2ccccc2)OC(COC(C)=O)C(OC(C)=O)C1OC(C)=O (configuration not stated) | -3% | 13%
8 | CCOc1ccc(Br)cc1CSC(=N)N | -2% | -1%
9 | COC(=O)[C@]1(C)N[C@H](CN(C)S(=O)(=O)c2ccc(F)cc2)[C@@H]2C(=O)N(C)C(=O)[C@@H]21 | -1% | 17%
10 | CC(C)CCCC(C)C1CCC2C3CC=C4CC(O)CCC4(C)C3CCC12C (configuration not stated) | -7%[0.501 µM] | .
11 | CC1CC(C)CN(C(=O)C2CCCN(S(=O)(=O)c3cccc4nonc34)C2)C1 (configuration not stated) | . | -3%
12 | FCCCOc1ccc(/C=N/OCc2c(Cl)cccc2Cl)cc1 | 17% | -19%
13 | CC(C)c1nnc(NC(=O)CCC(=O)N2CCN(C3CCCCC3)CC2)s1 | -16% | 2%
14 | CCc1ccc(-n2c(=O)c3sc4ccccc4c3n(CC(=O)N3CCCC3)c2=O)cc1 | 10% | -3%
15 | COCCN(C(=O)CSc1nnc(-c2ccc(C)c(C)c2)o1)c1c(N)n(CC(C)C)c(=O)[nH]c1=O | -19% | -1%
16 | O=C(c1cccc(S(=O)(=O)N2CCOCC2)c1)N1CCN(c2ccc(F)cc2)CC1 | -7% | 30%
17 | CCCCc1c(C)nc2ccccc2c1SCCC(=O)O | -5% | 0%
18 | COc1ccc(C(=O)Nc2cccc(/C(C)=N/NC(=O)c3ccc([N+](=O)[O-])c(C)c3)c2)cc1OC | 2% | -2%
19 | O=C(NCC(c1ccco1)N1CCN(c2ccccc2F)CC1)C1CCCCC1 (configuration not stated) | -9% | -9%
20 | CN(C)S(=O)(=O)c1cccc(NC(=O)COC(=O)CCC(=O)c2ccc(F)cc2)c1 | -1% | 5%
21 | COc1ccc(C2C(C(C)=O)=C(O)C(=O)N2c2cccnc2)cc1OC (configuration not stated) | 0% | 5%
22 | O=C(NCc1ccccc1)c1cc(=O)nc2sc(-c3ccccc3)nn12 | -9% | 6%
23 | Cc1cccnc1Nc1nc(-c2ccc(F)cc2)cs1 | -5% | -9%
24 | Cc1ccc(Cl)c(NC(=S)N(CCCN2CCOCC2)Cc2ccco2)c1 | 28% | -4%
25 | CCOc1ccccc1C(=O)NCCCN1CCN(CCCNC(=O)c2ccccc2OCC)CC1 | -8% | -3%
26 | Cc1nc(CN2CCN(S(=O)(=O)c3c(Cl)cc(Br)cc3Cl)CC2)cs1 | -16% | 7%
27 | CN1CCN(c2ccc(Cl)cc2NC(=O)c2cccc(S(=O)(=O)N(C)C)c2)CC1 | -2% | 11%
28 | CC(C)(C)c1ccc(NC(=O)CN2C(=O)NC(C)(C3CC3)C2=O)cc1 (configuration not stated) | 2% | -13%
29 | O=C(Cn1nc(C(=O)O)c2ccccc2c1=O)Nc1ccc(F)cc1F | 0% | -4%
30 | O=C(NCCC(=O)N(Cc1ccco1)Cc1cccs1)c1ccc(Br)cc1 | 0% | 11%
31 | Cc1ccc(S(=O)(=O)N(CC2CO2)c2cc(Cl)ccc2Cl)cc1 (configuration not stated) | -1% | -10%
32 | CCCOc1ccccc1N/C(=N/c1nc(C)cc(C)n1)NC(=O)Nc1ccc(Cl)cc1 | 1% | -1%
33 | COc1ccccc1/C(C)=N/NC(=S)NCc1ccccc1 | -9% | ?
34 | N#Cc1c2n(c3c(=O)n(Cc4ccc(Cl)cc4)cnc13)CCCCC2 | ? | -1%
35 | CC(NC(=O)c1ccccc1F)C(=O)O (configuration not stated) | 116%[activator] | 7%
36 | CCOc1ccc(N(Cc2ccccc2F)C2=NC3CS(=O)(=O)CC3S2)cc1 (configuration not stated) | -8% | -1%
37 | O=C(CCc1nc(-c2ccccc2F)no1)NCCc1ccccc1Cl | 1% | 3%
38 | Cc1ccc(NC(=O)CSc2nnc(-c3cccnc3)n2CCN2CCCCC2)cc1 | -3% | 9%
39 | CN(c1ccccc1)S(=O)(=O)c1cccc(NC(=O)Cc2c(F)cccc2Cl)c1 | -10% | -2%
40 | O=C(Nc1ccc(N2CCOCC2)cc1)c1ccc(Cl)nc1 | -5% | -4%
41 | Cc1cccc(C(C)Nc2ccc([N+](=O)[O-])cn2)c1 (configuration not stated) | ? | -16%
42 | CC(c1nc2ccccc2c(=O)[nH]1)N1CCCN(S(=O)(=O)c2ccc(F)cc2)CC1 (configuration not stated) | -5% | -16%
43 | Cc1c(C(c2cccc([N+](=O)[O-])c2O)c2c(C)n(C)n(-c3ccccc3)c2=O)c(=O)n(-c2ccccc2)n1C | -2% | -7%
44 | COc1cccc(CCc2nnc(CCC(=O)NCCc3cccc(C)n3)o2)c1 | -2% | -7%
45 | Cc1cc(C(=O)NCc2nc(-c3ccccc3)no2)ccc1[N+](=O)[O-] | 1% | -7%
46 | Cc1ccc([N+](=O)[O-])c(C(=O)Nc2cccnc2Cl)c1 | -5% | 19%
47 | O=C(CCCCCCN1C(=O)c2ccccc2C1=O)Nc1nccs1 | 2% | -8%
48 | Cc1cc(OC(=O)c2ccccc2Cl)ccc1N1C(=O)CCC1=O | -4% | -9%
49 | CCOC(=O)c1ccc(Nc2nc3ccccc3nc2NS(=O)(=O)c2ccc(Cl)cc2)cc1 | -6% | -17%
50 | CCOC(=O)c1ccc(NC(=O)c2cn(CCC#N)nc2-c2ccc3c(c2)OCCO3)cc1 | -4% | -8%
51 | CCCCn1c(N)c(N(CCOC)C(=O)CSCc2ccccc2C)c(=O)[nH]c1=O | -1% | -6%
52 | Cc1ccccc1Cn1c(C)cc(C)c(C#N)c1=O | -8% | -8%
53 | COc1ccccc1C(=O)NCC(=O)OCC(=O)Nc1cccc(S(=O)(=O)N(C)C)c1 | 15% | 13%
54 | CC(Oc1ccc2c(c1)oc(=O)c1ccccc12)C(=O)NCCCN1CCOCC1 (configuration not stated) | -5% | 13%
55 | COc1cccc(NC(=O)CN(C)CC(=O)NCC(=O)Nc2ccc(F)cc2)c1 | -15% | 19%
56 | COc1ccc(CNC(=O)C(c2ccco2)N(Cc2ccccc2)C(=O)Cc2cccs2)cc1 (configuration not stated) | -9% | -18%

Continuation:
# | smiles | KAT2A inh | FEN1 inhibitor
57 | CC1=C(C(=O)OC(C)C)C(c2cccs2)NC(=S)N1 (configuration not stated) | -9% | 11%
58 | Cc1oc(S(=O)(=O)N2CCCC2)cc1C(=O)Nc1ccccc1 | -19% | 0%
59 | Cc1ccnn1CCC(=O)N1CCCC(CCC(=O)N2CCN(c3ccccn3)CC2)C1 (configuration not stated) | -6% | 3%
60 | CCCNC(=O)Cn1cccc1C(=O)c1ccccc1 | 4% | 1%
61 | Cc1ccccc1C(=O)NNC(=O)C1CCCN(c2ncccn2)C1 (configuration not stated) | -2% | -3%
62 | CCc1ccc(NC(=O)C2CCN(c3ccc(Sc4ccc(C)cc4)nn3)CC2)cc1 | 0% | 23%
63 | COc1ccc(OC)c(NC(=O)c2cc3sccc3n2C)c1 | -8% | -19%
64 | COC(c1ccccc1)c1nnc(CCC(=O)NCCC(C)C)o1 (configuration not stated) | -1% | 4%

Part of the list above, with two lines to a compound.
Results follow in this order: KAT2A inh	FEN1 inhibitor
57	CC1=C(C(=O)OC(C)C)C(c2cccs2)NC(=S)N1 (configuration not stated)
    -9%	11%
58	Cc1oc(S(=O)(=O)N2CCCC2)cc1C(=O)Nc1ccccc1
    -19%	0%
59	Cc1ccnn1CCC(=O)N1CCCC(CCC(=O)N2CCN(c3ccccn3)CC2)C1 (configuration not stated)
    -6%	3%
60	CCCNC(=O)Cn1cccc1C(=O)c1ccccc1
    4%	1%

(more compounds)
# | smiles | KAT2A inh | FEN1 inhibitor
65 | O=C(O)c1cccnc1Br | -3% | -4%
66 | CCN(C(=O)CSc1nc2ccccc2c2nc(CCn3c(C)nc4ccccc43)nn12)c1cccc(C)c1 | -4% | 1%
67 | CCC(C(=O)OC)n1cnc2c(nnn2-c2cccc(Cl)c2)c1=O (configuration not stated) | 2% | 10%
68 | CC1Cc2cc(/C(O)=C3/C(=O)C(=O)N(CCCn4ccnc4)C3c3ccc(Br)cc3)ccc2O1 (configuration not stated) | -19% | 0%
69 | CN(C)c1nc(NC(C)(C)C)nc(SCC(=O)Nc2ccccc2)n1 | -22% | -9%
70 | Cc1nc2ccccc2c(=O)n1CCCN1CCOCC1 | -4% | 19%
71 | CCCCCC[n+]1c(-c2ccccc2)csc1Nc1ccccc1 | 8% | -1%
72 | COc1ccc(C(=O)NNC(=O)CSc2nnc(COc3ccc4ccccc4c3)n2C)cc1 | 4% | 2%

Two of these compounds, reformatted:
72: COc1ccc(C(=O)NNC(=O)CSc2nnc(COc3ccc4ccccc4c3)n2C)cc1
  KAT2A inh: 4%; FEN1 inhibitor: 2%
68: CC1Cc2cc(/C(O)=C3/C(=O)C(=O)N(CCCn4ccnc4)C3c3ccc(Br)cc3)ccc2O1 (configuration not stated)
  KAT2A inh: -19%; FEN1 inhibitor: 0%

Continuation.
# | smiles | KAT2A inh | FEN1 inhibitor
73 | O=C(CSc1nc(=O)[nH]c2c1CCCC2)NCc1ccccc1 | -12% | 10%
74 | COc1ccccc1CNC(=O)CCNS(=O)(=O)c1cccc2nonc12 | -2% | 1%
75 | CCOC(=O)CSc1nc(NCc2ccco2)c2ccccc2n1 | 1% | -14%
76 | CCc1cccc(C)c1NC(=O)C(c1ccc(O)cc1)N1CCC1=O (configuration not stated) | -1% | -4%
77 | O=C(COC(=O)Cc1c[nH]c2ccccc12)NCCc1ccccc1 | 2% | 4%
78 | COc1ccc(C(=O)CCC(=O)N2CCN(c3ccc([N+](=O)[O-])cc3)CC2)cc1 | 3% | 5%
79 | COc1cccc(C2CC(c3ccccc3OC)n3ncnc3N2)c1 (configuration not stated) | -11% | -7%
80 | Cn1c(NCC2CCCO2)nc2c1c(=O)n(Cc1ccccc1)c(=O)n2C (configuration not stated) | -2% | 0%

Random excerpt: 2 compounds from above.
# | smiles | KAT2A inh | FEN1 inhibitor
79 | COc1cccc(C2CC(c3ccccc3OC)n3ncnc3N2)c1 (configuration not stated) | -11% | -7%
75 | CCOC(=O)CSc1nc(NCc2ccco2)c2ccccc2n1 | 1% | -14%

New compounds follow.
# | smiles | KAT2A inh | FEN1 inhibitor
81 | Cc1c(C(=O)O)oc2ccc(S(=O)(=O)NCc3ccc(F)cc3)cc12 | 0% | 2%
82 | COc1cc(C(c2sc3nc(C)nn3c2O)N2CC(C)CC(C)C2)cc(OC)c1OC (configuration not stated) | 2% | 15%
83 | CN1CCC(OC(=O)c2ccc(Cl)cc2Cl)CC1 | 0% | 17%
84 | O=C(C1CCC(=O)N(C2CCCC2)C1)N1CCN(c2ccc(Cl)cc2)CC1 (configuration not stated) | -3% | 11%
85 | CCn1c(=O)n(Cc2ccco2)c(=N)c2c3c(sc21)COC(C)(C)C3 | 3% | -11%
86 | O=C(COC(=O)c1ccc(O)cc1O)NC(=O)NCc1ccccc1 | 0% | -13%
87 | CCN1CCN(c2ncc3c(n2)CCN(Cc2cccc(F)c2F)C3)CC1 | 5% | 17%
88 | O=C(CCS(=O)(=O)c1ccccc1)Nc1nncs1 | -8% | 1%
89 | CC(=O)COC(=O)c1cccc(N2C(=O)C3C4C=CC(C4)C3C2=O)c1 (configuration not stated) | -3% | -2%
90 | O=C(Nc1ccnn1C1CCN(Cc2c(F)cccc2Cl)CC1)C1CCCC1 | -3% | 17%
91 | O=C(C1CCN(S(=O)(=O)c2ccc(Cl)cc2)CC1)N1CCC1 | 0% | -9%
92 | NC(=O)c1ccc(CN2CCc3ccccc3C2)cc1 | -1% | 17%
93 | Cc1ccc(S(=O)(=O)N2CCN(CC(=O)NC(=O)NCc3ccccc3)CC2)cc1C | -5% | 0%
94 | CC(C/C=N/NC(=O)COc1cc(Cl)ccc1Cl)c1ccccc1 (configuration not stated) | -23% | -21%
95 | COc1ccc(S(=O)(=O)N2c3ccccc3OCC2C(C)(C)C)cc1 (configuration not stated) | -21% | 4%
96 | COc1cc(/C=N/OCC(=O)NC2CCCCC2)ccc1OCc1ccccc1 | 0% | -1%
97 | COc1cccc(CC(=O)N2CCC(CCC(=O)Nc3cccc(OC)c3)CC2)c1 | -1% | -3%
98 | Cc1cc(C)c(C(N)=O)c(Nc2cccc(Cl)c2)n1 | -1% | -6%

Screening results (PubChem BioAssay)
